# Rango release inh = qHTS Assay for Inhibitors of RanGTP induced Rango (Ran-regulated importin-beta cargo) - Importin beta complex dissociation. Snurportin-1 (Homo sapiens) + GTP-binding nuclear protein Ran (Homo sapiens) + Importin …. Biochemical FRET Rango-importin beta, RanGTP-induced dissociation. Potency, µM (top dose mostly 46.1 µM), for the others: at the highest dose activity change, negative = inhibition. 340,000 tested, 0.071% active. AID 540253, 2011; active means falling FRET ratio curve, often poorly fitted, with flat reads before Ran was added; inconclusive means other falling curves, or compound fluorescence or quenching; inactive means flat or rising ratio curve;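 further: potency means the concentration at half of the fitted maximal effect; % of control where 0% means no effect; nearly all actives have a fitted effect of over 45% in size; -100% = wells without RanGTP and RCC1; the record marks most hits as doubtful in a second field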
#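 Two FRET readings bracket the reaction: one 5 min after compound meets Rango–importin beta, another 45 min after RanGTP-RCC1 (0.6 uM Ran, 0.2 uM RCC1, 2 mM GTP) is added. Only the second defines inhibition.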
# GLA inh pH 4.5 = qHTS Assay for Inhibitors of Human alpha-Galactosidase at pH 4.5 | 230,000 tested, under 10 active | purified enzyme, 4-MU-alpha-Gal fluorescence, pH 4.5 | AID 1467, 2008 | activity change, negative = inhibition, % at 105 µM; inconclusive = small, poorly fitted or top-dose-only inhibition, or a rising curve; inactive = flat fitted curve, though single readings scatter; no compound was filed as active;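 further: 0% = full activity with enzyme and -100% = basal without enzyme; dose as in the result columns while the protocol names 77 µM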
# Target sequence (P06280 whole entry, looked up): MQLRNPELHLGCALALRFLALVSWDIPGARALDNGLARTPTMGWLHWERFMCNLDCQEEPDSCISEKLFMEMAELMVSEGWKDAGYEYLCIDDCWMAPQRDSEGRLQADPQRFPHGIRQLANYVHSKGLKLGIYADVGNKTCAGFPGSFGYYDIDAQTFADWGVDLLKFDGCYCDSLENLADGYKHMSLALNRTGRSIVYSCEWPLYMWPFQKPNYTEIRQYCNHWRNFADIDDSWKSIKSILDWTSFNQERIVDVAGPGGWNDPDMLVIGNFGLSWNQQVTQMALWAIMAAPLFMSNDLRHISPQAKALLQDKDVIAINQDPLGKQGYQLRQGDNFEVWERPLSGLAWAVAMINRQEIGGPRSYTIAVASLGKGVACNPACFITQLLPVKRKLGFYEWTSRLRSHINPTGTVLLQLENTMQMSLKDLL
# miR-21 FLuc = qHTS Assay for Modulators of miRNAs and/orActivators of miR-21; HeLa miR-21 FLuc reporter, luciferase, 48 h; Potency, µM (top dose mostly 38.3 µM), inactives show at the top dose reporter change, positive = more light; 340,000 tested, under 10 active; AID 2288, 2010; active = well fitted rising curve with a large enough effect; inconclusive = small, poorly fitted or top-dose-only effect; inactive = no such curve, though single readings can be large or run the other way;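 further: % of control where 0% means no effect; miR-21 action dims this reporter so a rising signal means less miR-21 action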
#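 Using DMEM plus 10% FBS, HeLa miR-21-FLuc cells are incubated with test compounds (final up to about 40uM) for 48 hours; firefly luciferase signal is then imaged following reagent-mediated lysis.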
# Rango complex inh = qHTS Assay for Inhibitors of Rango (Ran-regulated importin-beta cargo) - Importin beta complex formation. AID 540263, 2011. Rango CFP/YFP FRET sensor + importin beta, 45 min. Importin subunit beta-1 (Homo sapiens), Q14974. 340,000 tested, 0.031% active. Potency, µM (series often up to 92.2 µM), for inactives: top-dose inhibition of complex formation; active = rising FRET ratio curve, often small or poorly fitted; inconclusive = mostly compound fluorescence or quenching in the first reads; inactive = flat curves in all reads;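 further: potency means the concentration at half of the fitted maximal effect; 0% = DMSO wells and 100% = buffer wells lacking importin beta; nearly all actives have a fitted effect of over 15% in size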
#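 Inhibition scored from the CFP 486 nm/YFP 530 nm FRET ratio 45 min after adding 0.125 microM importin beta to 50 nM Rango biosensor preincubated 5 min with compound (room temperature, PBS with DTT, Tween-20, BSA). No-importin wells as positive control.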
# * hit, by the source's call; ? = inconclusive; . = not tested or not shown; & = joins results of further samples. Some of the compounds tested (hit frequency here may not be typical).
canonical_smiles	Rango release inh	GLA inh pH 4.5	miR-21 FLuc	Rango complex inh
COc1ccccc1NC(=O)CSc1nnc(CC(=O)Nc2cccc(C(F)(F)F)c2)n1C	3.5%	-6.7	-3.4%	-5.2%
Cc1ccc(NS(=O)(=O)c2ccc(C(=O)N3CCOCC3)cc2)cc1	-5.5%	.	.	-1.4%
COc1cccc(NS(=O)(=O)Cc2ccccc2)c1	1.3%	1.0	-8.2%	2.2%
Cc1cccnc1NC(=O)c1ccc2c(c1)OCCO2	2.2%	.	.	7.8%
O=C(N[C@H]1C/C=C\C(c2ccc(F)cc2)N(Cc2ccccc2)C(=O)C1)OCC1c2ccccc2-c2ccccc21 (stereo not given in full)	9.5%	.	.	-0.2%
CC(=O)c1cccc(NC(=O)C2CC(=O)N(CCc3ccccc3)C2)c1 (stereo not given)	2.9%	4.6	-6.4%	-4.1%
C/C(=N\NC(=O)COc1cccc2ccccc12)c1cccs1	16.7%	.	-10.1%	5.1%
O=C(Nc1ccc(N2CCOCC2)cc1N1CCOCC1)c1ccc(F)cc1	7.0%	.	.	1.5%
CC(NCCS(=O)(=O)c1ccc(Cl)cc1)c1cccc(Cl)c1 (stereo not given)	0.0%	.	-0.3%	2.9%
CC1CN(C(=O)c2cc(S(=O)(=O)N3CCCC3)ccc2Cl)CC(C)O1 (stereo not given)	-2.0%	.	0.1%	-0.1%
C[C@H](NC(=O)c1[nH]cnc1C(=O)Nc1ccc(CNC(=O)OC(C)(C)C)cc1)C(=O)OCc1ccccc1	4.9%	-11.5	-2.0%	-0.3%
COc1ccc2c(c1OC)C(=O)OC2Nc1ncc(Br)cc1Br (stereo not given)	-9.7%	-5.9	-0.8%	2.2%
O=C1CCCc2ccccc2N1Cc1ccccc1Cl	4.2%	-18.0	5.8%	1.0%
N#Cc1ccc2c(c1)nnn2-c1ccccc1	-4.9%	.	.	0.2%
CCc1noc(C)c1C(=O)Nc1ccc(F)c(F)c1	12.8%	.	.	-2.4%
O=C1c2ccccc2C(=O)N1CCc1nc(-c2ccncc2)no1	1.7%	-19.1	6.5%	-0.1%
Cc1cc(C)cc(NC(=O)N(C)Cc2ccccc2)c1	-7.7%	-3.7	4.2%	1.0%
CC(=O)N1CCN(c2ccc(NC(=O)c3ccc4c(c3)OCCO4)cc2)CC1	1.8%	-0.8	-9.6%	3.1%
COCC1CCN(C(=O)c2oc3c(F)cccc3c2C)C1 (stereo not given)	-0.8%	.	-53.4%	-2.3%
O=C(O)c1ccc(NCc2nc3ccccc3n2Cc2ccccc2F)cc1	6.1%	-3.8	-7.4%	-3.0%

# Next section
canonical_smiles	Rango release inh	GLA inh pH 4.5	miR-21 FLuc	Rango complex inh
COc1cc(CNc2nc3ccccc3s2)cc(OC)c1OC	14.6%	.	7.9%	8.1%
COC(=O)c1ccc(C(=O)NC2CCCc3c2cnn3-c2cc(F)cc(F)c2)nc1 (stereo not given)	2.7%	.	0.5%	0.0%
CN1CCN(CC(=O)N/N=C\c2c[nH]c3ccccc23)CC1	.	-0.5	0.2%	.
COC(=O)c1ccc(NC(C)C(=O)OC)c([N+](=O)[O-])c1 (stereo not given)	-2.1%	-16.7	-1.4%	-0.1%
CC1=C(C(=O)N2CCOCC2)C(c2ccc(OC(F)F)cc2)NC(=S)N1c1ccccc1 (stereo not given)	-3.4%	-23.7	-1.8%	-0.3%
NS(=O)(=O)c1ccc(NC(=O)CN2C(=O)c3ccccc3C2=O)cc1	4.6%	2.7	7.7%	-0.7%
CN1CCN(C(=O)C2CCN(c3ncc(C(F)(F)F)cc3Cl)CC2)CC1	2.7%	-1.2	4.5%	5.0%
CC1CCN(C(=O)Nc2cccc(NC(=O)N3CCC(C)CC3)c2)CC1	?	-0.2	-12.7%	1.8%
O=c1c(C(c2ccc(Cl)cc2)c2c(O)nc3n(c2=O)CCCS3)c(O)nc2n1CCCS2	1.8%	0.5	-1.0%	-2.3%
COc1ccccc1N=C1SC(C(=O)Nc2ccc(F)cc2)CC(=O)N1C (stereo not given)	-11.5%	-3.3	0.0%	-6.4%
C1CCN(Cc2nnnn2C2CCCC2)CC1	-12.9%	0.6	1.3%	7.8%
CCOC(=O)C1=C(C)NC(=S)NC1c1ccc(OC(=O)c2ccco2)cc1 (stereo not given)	8.6%	1.5	-0.8%	0.8%
CC(C)Cn1c(SCC(=O)N2CCCCC2)nc2ccccc2c1=O	-5.6%	-2.3	0.6%	?
CN(C(=O)COC(=O)/C=C/c1cccs1)C1CCCCC1	1.1%	.	.	?
O=[N+]([O-])c1ccccc1Oc1ncccc1[N+](=O)[O-]	?	6.0	0.8%	-2.2%
Cc1ccc2c(c1)c1c(n2CC(O)Cn2nc(C)c(Br)c2C)CCCC1 (stereo not given)	-18.2%	6.6	-0.3%	-0.1%
CC(C)COc1ccc(C(=O)OCCN2CCOCC2)cc1	4.6%	-1.4	-22.9%	0.1%
CC(=O)c1c(C)[nH]c(C(=O)OCC(=O)c2c[nH]c3ccccc23)c1C	-15.1%	.	.	0.4%
Cn1c(CNc2ccccc2O)nc2ccccc21	-14.9%	-0.9	-43.6%	?
Cc1nn(-c2ccccc2)c(C)c1NC(=O)COC(=O)c1cc(Br)ccc1O	3.0%	.	.	?

# Further compounds.
canonical_smiles	Rango release inh	GLA inh pH 4.5	miR-21 FLuc	Rango complex inh
O=C(N/N=C\c1ccc(-c2ccccc2[N+](=O)[O-])o1)C1COc2ccccc2O1 (stereo not given)	-1.4%	-0.2	-1.1%	-5.5%
Cn1c(=O)c2cc(NC(=O)c3ccccc3Cl)c(=O)oc2n(C)c1=O	-1.2%	1.2	-1.3%	3.3%
CN(C)CCCN(C(=O)c1ccc2ccccc2c1)c1nc2cc3c(cc2s1)OCO3	8.3%	.	-13.3%	0.7%
NC(=O)c1ccsc1NC(=O)CSc1n[nH]c(N)n1	0.4%	.	.	-2.1%
Cc1cc(C)cc(NS(=O)(=O)c2c(C)[nH]c(=O)[nH]c2=O)c1	2.5%	.	4.8%	-3.5%
CC(=O)c1cccc(NC(=O)N2CCCC2C(=O)Nc2ccc3c(c2)OCCO3)c1 (stereo not given)	9.9%	-11.6	-26.2%	-0.5%
CCNC(=O)NC(=O)COC(=O)C1CSC2(C)CCC(=O)N12 (stereo not given)	-9.4%	9.0	-0.9%	-1.4%
CCOC(=O)C1=NOC(CNc2ncc(C(F)(F)F)cc2Cl)C1 (stereo not given)	-0.9%	-8.8	-2.9%	3.0%
O=C(c1cccc(S(=O)(=O)N2CCCC2)c1)N1CCN(Cc2ccccc2)CC1	-5.6%	.	.	8.3%
Cc1ccnc(NC(=O)C2COc3ccccc3O2)c1 (stereo not given)	2.5%	3.2	-31.5%	1.6%
COCCCNC(=O)CS(=O)Cc1nc(-c2ccccc2C)oc1C (stereo not given)	19.8%	-2.2	-3.4%	-3.5%
Cc1nc2ccccc2c2c1C(=O)N(C1CCCCCCC1)C2=O	14.7%	-7.1	-6.7%	-0.3%
CCCN(CCC)CCCNC(=O)C(NS(=O)(=O)c1ccc2c(c1)CCC(=O)N2)c1ccccc1 (stereo not given)	-10.4%	5.9	1.5%	2.4%
CCOC(=O)c1c(-c2ccc(C)cc2)csc1NC(=O)c1cc2ccccc2oc1=O	1.4%	8.8	2.8%	1.1%
Nn1c(SCC(=O)Nc2ccc3c(c2)OCO3)nnc1C1CCCCC1	6.0%	1.5	-6.2%	5.8%
CC(C)c1nnc(NC(=O)CS(=O)(=O)Cc2ccccc2)s1	11.8%	5.9	0.4%	-2.2%
COc1ccccc1C(=O)Nc1nnc(C)s1	13.1%	9.1	-42.1%	5.9%
O=C(COC(=O)[C@@H]1CC(O)CN1S(=O)(=O)c1ccc2c(c1)OCCO2)Nc1cc(F)ccc1F (stereo not given in full)	?	.	.	?
CN(C)CCCn1c(SCCN2C(=O)c3ccccc3C2=O)nc2ccccc2c1=O	1.9%	5.5	4.0%	-1.3%
CCOC(=O)C1CCN(S(=O)(=O)c2cnc[nH]2)CC1	0.3%	-0.3	-6.1%	?

# Remaining list, next part.
canonical_smiles	Rango release inh	GLA inh pH 4.5	miR-21 FLuc	Rango complex inh
Nc1c(NCCCN2CCOCC2)c2ccccc2oc1=O	-11.2%	-4.2	-5.7%	-2.0%
Cc1cccc(NC(=O)CS(=O)CC(=O)Nc2cnc3ccccc3c2)c1C (stereo not given)	3.2%	.	-0.6%	-3.0%
C=C1CCN([C@H](C(=O)NCc2ccc(Cl)cc2)C(C)C)S(=O)(=O)c2ccccc21	0.1%	-3.2	0.2%	-16.6%
COC(=O)CN(c1cccc(C)c1)S(=O)(=O)c1ccccc1	12.7%	.	-2.2%	-0.2%
Nc1ccc(C(=O)NCCCSc2ccccc2)cc1[N+](=O)[O-]	-17.7%	.	5.0%	-0.5%
Cc1cc(C)c(NC(=O)COC(=O)C23CC4CC(CC(O)(C4)C2)C3)c(Cl)c1	-1.0%	.	.	-0.1%
CN(Cc1ccccc1)C(=S)Nc1cccnc1	-2.6%	0.5	1.6%	-1.3%
O=C(N/N=C/c1ccc(Cl)cc1)c1cc(-c2cccnc2)nc2ccccc12	12.5%	3.0	1.8%	-0.4%
CC(c1nnc(SCC(=O)Nc2ccc3[nH]c(=O)[nH]c3c2)n1Cc1ccccc1)N(C)C (stereo not given)	0.6%	7.5	-2.2%	0.2%
N#CC1=C(c2ccc(-c3ccccc3)cc2)COC1=O	-6.6%	4.0	-17.7%	?
C/C(CC(=O)Nc1ccc(N(C)C)cc1)=N\NC(=O)c1ccccn1	0.1%	3.7	-45.7%	2.9%
Cc1ccc(C(=O)Nc2sc3c(c2C(=O)O)CCCCC3)o1	13.2%	-0.9	?	-3.1%
CCOC(=O)C1=C(C)N=C2SCCC(=O)N2C1c1cc(Br)ccc1OC (stereo not given)	-3.8%	.	.	0.0%
O=C(Nc1ccccc1)Nc1ccc(S(=O)(=O)N2CCCCC2)cc1	6.5%	-10.5	20.1%	-0.2%
COC(=O)C(CCSC)NC(=O)c1cc2c(n(-c3ccccc3)c1=O)CCCC2=O (stereo not given)	-15.4%	9.9	-27.2%	1.1%
N#Cc1cn(Cc2cccc(Cl)c2)c2ccccc12	10.6%	-5.8	4.0%	-0.1%
CN(C(=O)c1cncc(Br)c1)C1C2CC3CC(C2)CC1C3 (stereo not given)	3.9%	.	-16.7%	-3.5%
NS(=O)(=O)c1ccc(NC(=S)Nc2ccc(Br)c(Cl)c2)cc1	12.0%	-17.5	4.9%	?
O=C(/C=C/c1cccc([N+](=O)[O-])c1)c1ccc2c(c1)OCCO2	8.3%	0.9	-9.2%	-0.6%
CC1=C(C(=O)O)N2C(=O)[C@@H](NC(=O)[C@H](N)c3ccccc3)[C@H]2SC1	.	-4.3&2.2	3.5%	.

# (list continues)
canonical_smiles	Rango release inh	GLA inh pH 4.5	miR-21 FLuc	Rango complex inh
Cc1nnc(SCC(=O)N(CC(C)C)C2CCS(=O)(=O)C2)s1 (stereo not given)	-5.7%	.	.	0.1%
CC(C)C[C@@H]1NC(=O)[C@H](Cc2ccc(O)cc2)NC(=O)[C@H](CCC(N)=O)NC(=O)c2cc([N+](=O)[O-])cc(I)c2NCC[C@@H](C(N)=O)NC1=O	.	-15.0	3.6%	.
O=C(CCCC(=O)NN=Cc1cccc(O)c1)NN=Cc1cccc(O)c1	24.7%	.	.	-0.4%
O=C1C2C3C=CC(C2C(=O)N1c1nccs1)C1C(=O)N(c2nccs2)C(=O)C31 (stereo not given)	18.4%	1.3	2.8%	-2.0%
CC(C)N(Cc1c(O)ccc2c(=O)c(-c3ccc(Cl)cc3)coc12)C(C)C	13.1%	.	-31.8%	-1.3%
Cc1ccc2nc(N/N=C/c3ccco3)cc(C)c2c1	-11.6%	-18.5	-52.4%	?
O=C(Nc1ccc(S(=O)(=O)N2CCCCCC2)cc1)C1CCCO1 (stereo not given)	2.2%	8.3	-12.2%	0.6%
COc1ccccc1C(=O)COC(=O)c1c(-c2ccccc2)noc1C	-16.1%	.	.	-1.6%

# Screening data as filed in PubChem BioAssay.
